Yeast UUG start: modulators of start codon recognition fidelity in yeast | S. cerevisiae UUG-firefly luciferase reporter, luminescence/redox ratio | activity score, % at 18.7 µM | hit rate 0.13% among 350,000;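 active = replicate mean at a twofold rise or more, about +100% in these data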;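 note: firefly luciferase made from a UUG start codon reports start codon fidelity; reporter light over untreated wells divided by growth signal over untreated wells; some hits fall short of that in this replicate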
MT1-MMP act inh: MT1-MMP (human) activation inhibition; P50281; HT1080 RFP-PRO-GFP cells, GFP/RFP ratio fluorescence, overnight; percent of plate control window, DMSO zero; GFP/RFP ratio change, % at 20 µM; hit rate 0.061% among 360,000; AID 651647;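 active = GFP/RFP ratio change of at least 30% with cell ATP level not reduced by more than half and red fluorescence within 50% of control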; note: strong numbers were not always called active
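Test system: HT1080 cells expressing an RFP-PRO-GFP fluorescent reporter construct / Compound dosing: single-point 20 µM compound, 1% DMSO / Schedule: cells overnight before dosing, compound overnight, 37 °C, 5% CO2 / Evaluation: GFP/RFP fluorescence ratio / Control set: DMSO and RFP-L50D-GFP cell wells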
eIF4H FP inh: inhibitors of RNA binding by human eIF4H. inhibition, % at 35 µM. Q15056. eIF4H fluorescence polarization binding assay. hit rate 0.94% among 290,000. AID 2012;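 active = 50% or more with normal probe brightness, or confirmed in later tests; inconclusive = above 50% with abnormal brightness, or retests that disagree; inactive = below 50% or failed in later tests; about a fifth of its hits are not listed in these tables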;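 note: calls also rest on retests at 20 µM and on dose response follow-up; 0% = protein and probe with vehicle and 100% = probe without protein; strong numbers were not always called active; many hits fall short of the cut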
HIV Env fusion: HIV envelope-mediated fusion inhibition. hit rate 1.1% among 360,000. inhibition, % at 12.3 µM. HeLa-JRFL Env/CEM21 cell fusion, luciferase;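 active = mean replicate inhibition score of at least 50 and every replicate individually at or above 50; inconclusive = only one of the two criteria met; inactive = mean below 50 and not all replicates reaching 50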;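 note: 0% = plate neutral controls and 100% = maraviroc near 300 nM; one replicate is shown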
PABP FP inh: PABP-poly(A) binding inhibition | PABP-poly(A) RNA binding, fluorescence polarization | inhibition, % at 35 µM | hit rate 1% among 290,000 | P11940;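 active = 50% or more with normal probe brightness, or confirmed in later tests; inconclusive = above 50% with abnormal brightness, or retests that disagree; inactive = below 50% or failed in later tests; about a fifth of its hits are not listed in these tables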;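 note: calls also rest on retests at 20 µM and on dose response follow-up; controls were probe without protein and protein plus probe with vehicle; some compounds called inactive have numbers as strong as hits; many hits fall short of the cut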
Target sequence (P11940 whole entry, looked up): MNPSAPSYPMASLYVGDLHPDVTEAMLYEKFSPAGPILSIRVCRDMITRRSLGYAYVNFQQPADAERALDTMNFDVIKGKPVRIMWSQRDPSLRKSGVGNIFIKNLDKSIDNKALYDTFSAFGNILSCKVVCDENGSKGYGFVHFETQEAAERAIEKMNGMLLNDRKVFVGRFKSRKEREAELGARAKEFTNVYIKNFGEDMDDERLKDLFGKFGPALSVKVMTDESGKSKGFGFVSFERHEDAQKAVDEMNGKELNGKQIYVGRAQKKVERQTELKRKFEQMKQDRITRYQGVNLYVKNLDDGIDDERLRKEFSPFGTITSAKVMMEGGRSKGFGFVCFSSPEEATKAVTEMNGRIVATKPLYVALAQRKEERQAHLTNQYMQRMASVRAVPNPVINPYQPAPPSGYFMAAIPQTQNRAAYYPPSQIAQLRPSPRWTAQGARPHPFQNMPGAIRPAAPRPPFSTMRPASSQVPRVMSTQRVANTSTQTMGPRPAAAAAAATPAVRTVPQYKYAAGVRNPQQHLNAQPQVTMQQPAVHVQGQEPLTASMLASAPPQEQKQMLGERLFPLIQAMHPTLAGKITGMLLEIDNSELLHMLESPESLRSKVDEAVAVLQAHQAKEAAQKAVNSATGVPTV
CSC inhib: cancer stem cell inhibition. cancer stem cell-like cells viability, luminescence. inhibition, % at 7.5 µM. hit rate 1.1% among 300,000. AID 2717;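 active = mean at 75% or more and at least half the replicates too; inconclusive = mean and replicates disagree; tested in HMLE shEcad cells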;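 note: 0% = median of negative and 100% = median of positive control wells; the first replicate is given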
Rce1 inhib: yeast Ras-converting enzyme inhibition. yeast membranes, quenched prenylated peptide cleavage fluorescence. calls only. hit rate 0.27% among 290,000;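 active = fall in fluorescence gain of 50% or more versus controls, with final raw signal at or below 3038400; inconclusive = same 50% fall but final raw signal above 3038400; inactive = fall in fluorescence gain under 50%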;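 note: plate controls were neutral control wells for no effect and wells lacking membranes for full effect; tested at 10 µM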
eIF4H FP inh retest: recorded beside eIF4H FP inh, whose call it bears; inhibition, %; compound at 20 µM; confirmation average;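 mean of two retest wells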
PABP FP inh retest: recorded beside PABP FP inh, whose call it bears; inhibition, %; compound at 20 µM; confirmation repeats;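 mean of two retest wells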
MT1-MMP act inh RFP: recorded beside MT1-MMP act inh, whose call it bears; RFP signal change, %; measured here: RFP expression control read;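 0 = vehicle wells; hits needed this value within 50% of zero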
* marks the source's active call; other numbers are inactive results; i = inactive; ? = inconclusive; / = not tested or not shown. A portion of the library; rates above refer to the full screens.

SMILES | Yeast UUG start | MT1-MMP act inh | MT1-MMP act inh RFP | eIF4H FP inh | HIV Env fusion | PABP FP inh | CSC inhib | Rce1 inhib | others
C/C(=N\OCC(=O)Nn1c(=O)[nH]c2ccccc2c1=O)c1ccccc1 | / | 18 | 2 | 7 | 6 | 8 | 12 | i
Cc1noc(C)c1CSCC(=O)N(C)CC(=O)Nc1ccccc1Br | -16 | 0 | -1 | / | -4 | / | -11 | i
Cc1cc(C)cc(-n2nnnc2-c2cn(C)nc2C(F)(F)F)c1 | -2 | 5 | -1 | 6 | / | 1 | 3 | i
CCC1CCCCN1CCCNC(=O)c1ccc(CS(=O)(=O)c2ccccc2OC)o1 (stereo unspecified) | / | -3 | 0 | 11 | 0 | 7 | -3 | i
N#CCCCCn1c(-c2cncs2)nc2ccccc21 | -9 | 0 | 8 | 8 | 22 | 9 | 3 | i
C=CCN1C(=O)C2C(C(=O)NCc3ccccc3)C3(C)C=CC2(O3)C1C(=O)NC(C)(C)C (stereo unspecified) | -8 | 6 | 4 | -8 | -2 | 6 | -19 | i
COc1ccc(CC(=O)NC(C)c2ccc3ccccc3c2)cc1 (stereo unspecified) | -10 | -1 | 0 | -2 | 2 | 2 | -13 | i
O=C(CSc1nc2scc(-c3ccco3)c2c(=O)n1-c1ccccc1)N1CCOCC1 | -3 | -8 | -2 | 50 | -4 | 22 | -14 | i | eIF4H FP inh retest=-5;PABP FP inh retest=8
Cc1cc(C)n(-c2nc3ccccc3nc2N2CCC(C)CC2)n1 | -9 | -8 | -4 | -4 | -55 | -5 | 8 | /
CCn1nc(C(=O)NNC(=O)C(Cc2ccccc2)NC(N)=O)c2ccccc2c1=O (stereo unspecified) | -11 | 0 | -1 | / | 14 | / | 2 | /
FC(F)(F)c1cccc(OCC2CNC(=S)O2)c1 (stereo unspecified) | -24 | -2 | -2 | 7 | -10 | 11 | -9 | i
CCOC(=O)Cc1csc(/N=C/c2c(O)n(-c3ccccc3C(F)(F)F)c(=O)c3ccccc23)n1 | -10 | -43 | 0 | -2 | -6 | -8 | 7 | i
COc1ccc(NC(=O)COC(=O)c2ccc(S(=O)(=O)N3CCCCC3)cc2)c(OC)c1 | -12 | 3 | 4 | / | 9 | / | / | /
Cc1cccc(NC(=S)NCCc2c[nH]c3ccccc23)c1 | / | 0 | -2 | -5 | 3 | -1 | -35 | i
COc1ccc(OCCCC(=O)ON=C(N)c2ccccc2Cl)cc1 | -4 | 1 | 1 | / | / | / | 4 | /
O=C(/C=C/c1cnc2ccccc2n1)NC1CCCCCC1 | / | 0 | -2 | -1 | -35 | -9 | 1 | i
CCn1c(SCCC(C)C)nnc1-c1c[nH]c2ccccc12 | -22 | 3 | -25 | -6 | 20 | -1 | -5 | i
Cc1nn(CC(=O)NCCc2ccc(Cl)cc2)c(=O)c2cccn12 | 2 | 0 | 4 | -2 | 1 | -2 | -14 | i
Cc1cccc(C2c3[nH]c4ccccc4c3CCN2C(=O)CN2CCOC2=O)n1 (stereo unspecified) | -13 | -2 | -1 | 4 | -8 | 6 | -4 | i
O=C(Cc1ccc(Cl)cc1)c1c[nH]c(C(=O)NCCCn2ccnc2)c1 | / | 2 | -1 | -11 | -2 | 0 | 63 | i
CCOC(=O)N1CCN(c2c(N3CCN(c4ccc(OC)cc4)CC3)c(=O)c2=O)CC1 | 13 | 0 | 2 | -9 | -8 | -3 | 0 | i
CCOc1ccc(C(=O)CSCCC(=O)O)cc1 | -33 | 1 | 0 | 4 | 22 | -11 | -5 | i
CC(=O)Nc1ccc(NC(=O)C(C)OC(=O)c2ccc(OCc3c(C)noc3C)cc2)cc1 (stereo unspecified) | / | 1 | 0 | -7 | -32 | -10 | -1 | i
Cc1cccc(NC(=O)NCc2ccc3c(c2)OCO3)c1 | -3 | -2 | 4 | -2 | -22 | -2 | -3 | i
C[C@@H]1CN([C@@H](C)CO)C(=O)c2cc(N(C)C)ccc2O[C@@H](C)CCCCO[C@@H]1CN(C)Cc1ccc2c(c1)OCO2 | 13 | -4 | 0 | / | -80 | / | / | /
O=C(COc1cccc2ccccc12)N/N=C/c1ccccc1OCc1ccc(C(=O)O)cc1 | / | 5 | 6 | 4 | 14 | -8 | -12 | i
COc1ccc(NC(=O)C2CCN(S(=O)(=O)c3ccc(C)cc3)CC2)cc1OC | -22 | 4 | 2 | 1 | 2 | -1 | -6 | i
CC1CC(=O)N(CC(=O)NCc2ccco2)c2ccccc2S1 (stereo unspecified) | / | -3 | 3 | 5 | / | -5 | -12 | i
O=C1CC(NCCN2CCOCC2)C(=O)N1Cc1ccc(N2CCCC2=O)cc1 (stereo unspecified) | 6 | -10 | -4 | 1 | / | 1 | 15 | i
COc1ccc2[nH]c3c(c2c1)[C@@H]1CCN2C(=O)CCC[C@H](C3)[C@H]12 | -5 | 3 | 2 | 17 | 14 | 24 | -10 | i
O=S(=O)(c1ccccc1)N1CC=C(c2ccccc2)CC1 | / | -1 | -1 | -2 | 4 | 4 | 1 | i
O=C(c1ccccc1)c1ncc(C(F)(F)F)cc1Cl | -10 | 3 | 3 | -5 | 16 | 2 | / | i
CCc1nn(CC(=O)N2CC(C)CC(C)C2)c(=O)c2cccn12 (stereo unspecified) | -18 | 4 | 6 | 5 | -2 | -5 | -12 | i
CC(=O)Nc1ccc(Nc2c3c4c(cccc4n(C)c2=O)C(=O)c2ccccc2-3)cc1 | -17 | -157 | -4 | ? | -27 | 0 | 38 | i
CC(=O)Nc1ccc(S(=O)(=O)Nc2ccc(F)c([N+](=O)[O-])c2)cc1 | / | 2 | 1 | -5 | 7 | 1 | / | i
COc1ccc(CC(=O)NCC2CCCN(Cc3ccc(OC)cc3F)C2)cc1 (stereo unspecified) | -11 | 0 | -2 | -8 | -7 | 9 | -2 | i
CCn1c(SCC(=O)Nc2ccc(C(C)=O)cc2)nc2nc3c(cc2c1=O)COC(C)(C)C3 | / | 2 | 4 | -4 | -12 | -3 | -16 | i
CCOC(=O)C=C(C(=O)OCC)C(=O)OCC | / | -10 | -5 | -5 | 9 | -2 | / | /
Cc1ccc(C2CC(C(F)(F)F)n3nc(C(=O)NCC4CCCO4)cc3N2)cc1 (stereo unspecified) | / | / | / | -9 | -53 | -6 | / | i
Cc1ccc(-n2c(=O)c3sccc3n(CC(=O)NCc3ccco3)c2=O)cc1F | -3 | 2 | 3 | -2 | 13 | -8 | -2 | i
CCn1c(-c2cc(OC)ccc2OC)csc1=Nc1c(C)n(C)n(-c2ccccc2)c1=O | 8 | 2 | -7 | -3 | / | -3 | -19 | i
O=C(Nc1ccc(S(=O)(=O)N2CCOCC2)cc1)c1ccc2c(c1)OCO2 | / | -3 | 2 | -5 | -2 | -3 | -9 | i
CCC(=O)N1CCC1(C)C(=O)Nc1ccc2c(c1)CCN2C(C)=O (stereo unspecified) | -12 | -1 | 3 | / | -7 | / | / | /
O=c1cc[nH]c2ccc(OC(F)(F)F)cc12 | / | 1 | 1 | -6 | 15 | 1 | -4 | i
CC(=O)Nc1cccc(-c2csc(C(C)(O)c3cccc(F)c3)n2)c1 (stereo unspecified) | -15 | -2 | -5 | / | 9 | / | / | /
Cc1noc(C)c1CSc1nnc2ccc3ccccc3n12 | -11 | 6 | 3 | 8 | / | 6 | / | i
Cc1onc(-c2ccccc2Cl)c1C(=O)Nc1ccccc1O | -10 | 3 | -10 | 2 | 12 | 1 | -2 | i
CC(C)(C)C(=O)N1c2ccccc2CCc2ccccc21 | -16 | 1 | 8 | -2 | 10 | 1 | -4 | i
CN(Cc1ccccc1)C(=O)c1cccc(NC(=O)Cc2ccc(NC(=O)C3CCCN(C(=O)CCc4ccccc4)C3)cc2)c1 (stereo unspecified) | -12 | 2 | -18 | / | 20 | / | / | /
CCOc1ccc(OCC)c(S(=O)(=O)NCc2cccnc2)c1 | -14 | 8 | 2 | 2 | / | -9 | / | i
COc1ccc(NC(=O)C2CCCN(S(=O)(=O)c3cccc4nonc34)C2)c(OC)c1 (stereo unspecified) | / | 2 | 1 | -4 | -4 | 0 | -17 | i
CC(=O)Nc1ccc(S(=O)(=O)Nc2cccc(C(=O)Nc3ccccc3C(=O)O)c2)cc1 | 2 | 1 | 3 | 3 | 3 | 23 | -4 | i
O=C(c1nsnc1-c1ccccc1O)N1CCCCC1 | -12 | -4 | 1 | -7 | / | -5 | -5 | i
COCCCNC(=S)NCCNc1nc2cc(C)c(C)cc2cc1C#N | / | 5 | -3 | -1 | 23 | -13 | 0 | i
Cc1nc(-c2ccc(S(=O)(=O)N3CCN(c4cccc(C)c4C)CC3)cc2)co1 | -15 | 0 | -2 | / | 0 | / | -16 | i
Cc1cc(=O)oc2cc(NC(=O)CC3(CC(=O)O)CCCC3)ccc12 | 9 | -3 | 0 | 1 | -3 | -11 | 2 | i
CCCCOC(=O)c1ccc(NC(=O)c2ccc(F)cc2F)cc1 | -17 | 4 | -5 | / | -19 | / | -16 | i
Cc1ccc(/C=N/n2c(COc3ccccc3)n[nH]c2=S)s1 | -16 | 5 | 4 | -6 | -76 | -2 | 2 | i
COc1ccc(OCc2nc(C#N)c(N3CCN(c4ccc(OC)cc4)CC3)o2)cc1 | -5 | -4 | -10 | 2 | -6 | -10 | / | i
CCN(CC)C(=O)c1ccccc1NC(=O)c1ccccc1C | / | -2 | 3 | -6 | 22 | -10 | 6 | i
(cont.)
SMILES | Yeast UUG start | MT1-MMP act inh | MT1-MMP act inh RFP | eIF4H FP inh | HIV Env fusion | PABP FP inh | CSC inhib | Rce1 inhib | others
O=C(CC(Nc1ccc(Cl)cc1)C(=O)O)c1ccccc1 (stereo unspecified) | -36 | -4 | -1 | -3 | -473 | 4 | 38 | i
Cc1ccc(NC(=O)C[n+]2cc(-c3ccc(C)cc3)n3c2CCC3)cc1 | 52 | -1 | -2 | -10 | 9 | -3 | 14 | i
Cn1c(=O)oc2cc(S(=O)(=O)N3CCN(c4ccc(F)cc4)CC3)ccc21 | -13 | -22 | -9 | 28 | / | 6 | 16 | i
CCCCCCSc1nnc2[nH]c(=O)cc(N)n12 | / | 2 | 3 | 1 | -32 | 1 | -4 | i
N#CCCNC(=O)Cn1c(COc2ccc(Cl)cc2)nc2ccccc21 | -15 | / | / | -2 | / | -4 | -4 | i
COc1ccc(C(=O)Nc2ccccc2C(=O)N/N=C/c2cccc3ccccc23)cc1 | / | -1 | 2 | 6 | i | -1 | 59 | i
O=C(/C=C/c1ccccc1Cl)N(Cc1ccc(Cl)cc1)C1CCS(=O)(=O)C1 (stereo unspecified) | / | -3 | -5 | -7 | 18 | -4 | 1 | i
COc1ccc(CC(=O)c2ccc(O)cc2O)cc1OC | -7 | 2 | -1 | -6 | -21 | -3 | -10 | i
COc1ccc2nc(COC(=O)c3cccs3)c(C(C)=O)[n+]([O-])c2c1 | / | -2 | 0 | -9 | -6 | 66 | -13 | i | eIF4H FP inh retest=-8;PABP FP inh retest=6

Quoted from the results shown, 2 compounds:
SMILES | Yeast UUG start | MT1-MMP act inh | MT1-MMP act inh RFP | eIF4H FP inh | HIV Env fusion | PABP FP inh | CSC inhib | Rce1 inhib | others
O=C(CC(Nc1ccc(Cl)cc1)C(=O)O)c1ccccc1 (stereo unspecified) | -36 | -4 | -1 | -3 | -473 | 4 | 38 | i
Cc1ccc(NC(=O)C[n+]2cc(-c3ccc(C)cc3)n3c2CCC3)cc1 | 52 | -1 | -2 | -10 | 9 | -3 | 14 | i

Assay outcomes from PubChem.
